Menin-MLL TR inh: qHTS Assay for Inhibitors Targeting the Menin-MLL Interaction in MLL Related Leukemias: Competition With Texas Red Labeled MLL-derived Mutant Peptide | O00255 | Menin + Texas Red MLL mutant peptide, fluorescence polarization | Potency, µM (titrated, usually from 61.6 µM), for inactives: at the top dose FP activity change, negative = inhibition, hits mostly inhibitors | 270,000 compounds, 0.23% hits; active means well fitted inhibition curve with a large enough effect in the polarisation, with a control signal flat, not every such curve was filed as active; inconclusive means small, poorly fitted or top-dose-only effect, or effect the other way, or a change in a side signal; inactive means no such curve, though single readings can be large or run the other way; the % refers to the polarisation; further: potency means the concentration at half of the fitted maximal effect; % of control where 0% means no effect; many of its hits are not listed in these tables
GALK inh: qHTS Assay for Inhibitors of Human Galactokinase (GALK); P51570; Purified GALK, Kinase-Glo residual ATP luminescence; Potency, µM (doses to about 57.5 µM), for inactives: at the highest dose activity change, negative = inhibition, hits mostly inhibitors; 270,000 compounds, 0.007% hits; AID 1868, 2009; further: potency means the concentration at half of the fitted maximal effect; on the % scale 0 is the no-effect control and ±100 the full control effect
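Compounds were pin-transferred into ATP buffer (35 uM final), then GALK plus galactose (5 nM, 100 uM final) was added. After 1 h at room temperature, Kinase-Glo Plus was added and luminescence read after 10 min.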
TRPV1 agonist: HTS Assay for Compounds that Act as Agonists of the Vanilloid Receptor 1. 320,000 compounds, 0.19% hits. TRPV1-expressing cells, Fluo-8 calcium influx, agonist mode. activation, % at 8.33 µM. AID 540275, 2011; in the data active means activation above about 80%; inconclusive means between about 30% and that limit; further: 0% is about no effect
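TRPV1-expressing cells were cultured overnight at 35.5C and loaded with Fluo-8 calcium dye for 40 to 90 min at room temperature. After a 10 s baseline, compound was added and calcium influx was read kinetically for 3 min (ex 480/em 520 nm).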
USP2a block: qHTS Assay for Inhibitors of Ubiquitin-specific Protease USP2a Using CHOP2 as the Reporter. USP2 core, Ub-CHOP2 coupled fluorogenic reporter, 485/531. Potency, µM (titrated, usually from 38.3 µM), for the others: at the top dose activity change, negative = inhibition, actives largely listed as inhibitors. 330,000 compounds, 0.01% hits. AID 463254, 2010;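 further: potency means the concentration at half of the fitted maximal effect; plate controls were DMSO wells for no effect and full inhibition by NEM control for full effect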
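USP2 core (10nM final) preincubated 30min RT with compound in 20mM Tris-HCl pH 8.0, 2mM CaCl2, 2mM beta-mercaptoethanol, 0.05% CHAPS; 25nM Ub-CHOP2 plus 25nM reporter substrate added, fluorescence (Ex485/Em531) read after 60min.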
KCNH2 3.1 block: qHTS for Inhibitors of KCHN2 3.1: Mutant qHTS; activity change, % (tested at about 1.8 µM); U2OS KCNH2 3.1, thallium flux FluxOr; active compounds read low; 340,000 compounds, 0.95% hits; Potassium voltage-gated channel subfamily H member 2, brain isoform KCNH2 3.1 (human);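 active means maximum activity change below -70%; inconclusive means maximum activity change from -70% to -50%; inactive means maximum activity change above -50%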;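 further: thallium influx rate constant from kinetic fluorescence after stimulation buffer; on the % scale 0 is the no-effect control and ±100 the full control effect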
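Virally transduced U2OS (3.1 isoform, 4 h infection in dark at RT) → overnight 37 C → FluxOr + Red40 in HBSS/HEPES, 45 min → stimulation buffer, 2 min kinetic read → rate constant vs DMSO controls.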
FBPA coupling cs: qHTS Assay for Inhibitors of Fructose-1,6-bisphosphate Aldolase from Giardia Lamblia: Coupling assay counterscreen | coupling enzyme system counterscreen, AmpLite Red fluorescence | activity change, negative = inhibition, % at 58.2 µM, hits read low | 290,000 compounds, 0.67% hits | AID 2472, 2010; in the data active means activity change below about -30%; further: on the % scale 0 is the no-effect control and ±100 the full control effect
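Final compound at 57.5 uM, incubated 10 min at RT with coupling enzyme reagent (glyceraldehyde-3-phosphate), then 20 min with substrate and AmpLite Red detection. Fluorescence read at 525/598 nm; tests interference with the coupling assay, not aldolase inhibition.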
MLL CXXC-DNA inh: qHTS Fluorescence Polarization Assay for Inhibitors of MLL CXXC domain - DNA interaction; Potency, µM (highest dose often 115 µM), inactives show at the highest dose activity change, negative = inhibition, usual class: inhibitors; Histone-lysine N-methyltransferase 2A (Homo sapiens), Q03164; MLL-CXXC / FITC-HOXA9 DNA fluorescence polarization; 290,000 compounds, 0.037% hits; active means well fitted inhibition curve with a large enough effect in the polarisation, with a control signal flat, not every such curve was filed as active; inconclusive means small, poorly fitted or top-dose-only effect, or effect the other way, or a change in a side signal; inactive means no such curve, though single readings can be large or run the other way; the % refers to the polarisation; further: potency means the concentration at half of the fitted maximal effect
Target sequence (Q03164 whole entry, looked up, the tested form may be a part): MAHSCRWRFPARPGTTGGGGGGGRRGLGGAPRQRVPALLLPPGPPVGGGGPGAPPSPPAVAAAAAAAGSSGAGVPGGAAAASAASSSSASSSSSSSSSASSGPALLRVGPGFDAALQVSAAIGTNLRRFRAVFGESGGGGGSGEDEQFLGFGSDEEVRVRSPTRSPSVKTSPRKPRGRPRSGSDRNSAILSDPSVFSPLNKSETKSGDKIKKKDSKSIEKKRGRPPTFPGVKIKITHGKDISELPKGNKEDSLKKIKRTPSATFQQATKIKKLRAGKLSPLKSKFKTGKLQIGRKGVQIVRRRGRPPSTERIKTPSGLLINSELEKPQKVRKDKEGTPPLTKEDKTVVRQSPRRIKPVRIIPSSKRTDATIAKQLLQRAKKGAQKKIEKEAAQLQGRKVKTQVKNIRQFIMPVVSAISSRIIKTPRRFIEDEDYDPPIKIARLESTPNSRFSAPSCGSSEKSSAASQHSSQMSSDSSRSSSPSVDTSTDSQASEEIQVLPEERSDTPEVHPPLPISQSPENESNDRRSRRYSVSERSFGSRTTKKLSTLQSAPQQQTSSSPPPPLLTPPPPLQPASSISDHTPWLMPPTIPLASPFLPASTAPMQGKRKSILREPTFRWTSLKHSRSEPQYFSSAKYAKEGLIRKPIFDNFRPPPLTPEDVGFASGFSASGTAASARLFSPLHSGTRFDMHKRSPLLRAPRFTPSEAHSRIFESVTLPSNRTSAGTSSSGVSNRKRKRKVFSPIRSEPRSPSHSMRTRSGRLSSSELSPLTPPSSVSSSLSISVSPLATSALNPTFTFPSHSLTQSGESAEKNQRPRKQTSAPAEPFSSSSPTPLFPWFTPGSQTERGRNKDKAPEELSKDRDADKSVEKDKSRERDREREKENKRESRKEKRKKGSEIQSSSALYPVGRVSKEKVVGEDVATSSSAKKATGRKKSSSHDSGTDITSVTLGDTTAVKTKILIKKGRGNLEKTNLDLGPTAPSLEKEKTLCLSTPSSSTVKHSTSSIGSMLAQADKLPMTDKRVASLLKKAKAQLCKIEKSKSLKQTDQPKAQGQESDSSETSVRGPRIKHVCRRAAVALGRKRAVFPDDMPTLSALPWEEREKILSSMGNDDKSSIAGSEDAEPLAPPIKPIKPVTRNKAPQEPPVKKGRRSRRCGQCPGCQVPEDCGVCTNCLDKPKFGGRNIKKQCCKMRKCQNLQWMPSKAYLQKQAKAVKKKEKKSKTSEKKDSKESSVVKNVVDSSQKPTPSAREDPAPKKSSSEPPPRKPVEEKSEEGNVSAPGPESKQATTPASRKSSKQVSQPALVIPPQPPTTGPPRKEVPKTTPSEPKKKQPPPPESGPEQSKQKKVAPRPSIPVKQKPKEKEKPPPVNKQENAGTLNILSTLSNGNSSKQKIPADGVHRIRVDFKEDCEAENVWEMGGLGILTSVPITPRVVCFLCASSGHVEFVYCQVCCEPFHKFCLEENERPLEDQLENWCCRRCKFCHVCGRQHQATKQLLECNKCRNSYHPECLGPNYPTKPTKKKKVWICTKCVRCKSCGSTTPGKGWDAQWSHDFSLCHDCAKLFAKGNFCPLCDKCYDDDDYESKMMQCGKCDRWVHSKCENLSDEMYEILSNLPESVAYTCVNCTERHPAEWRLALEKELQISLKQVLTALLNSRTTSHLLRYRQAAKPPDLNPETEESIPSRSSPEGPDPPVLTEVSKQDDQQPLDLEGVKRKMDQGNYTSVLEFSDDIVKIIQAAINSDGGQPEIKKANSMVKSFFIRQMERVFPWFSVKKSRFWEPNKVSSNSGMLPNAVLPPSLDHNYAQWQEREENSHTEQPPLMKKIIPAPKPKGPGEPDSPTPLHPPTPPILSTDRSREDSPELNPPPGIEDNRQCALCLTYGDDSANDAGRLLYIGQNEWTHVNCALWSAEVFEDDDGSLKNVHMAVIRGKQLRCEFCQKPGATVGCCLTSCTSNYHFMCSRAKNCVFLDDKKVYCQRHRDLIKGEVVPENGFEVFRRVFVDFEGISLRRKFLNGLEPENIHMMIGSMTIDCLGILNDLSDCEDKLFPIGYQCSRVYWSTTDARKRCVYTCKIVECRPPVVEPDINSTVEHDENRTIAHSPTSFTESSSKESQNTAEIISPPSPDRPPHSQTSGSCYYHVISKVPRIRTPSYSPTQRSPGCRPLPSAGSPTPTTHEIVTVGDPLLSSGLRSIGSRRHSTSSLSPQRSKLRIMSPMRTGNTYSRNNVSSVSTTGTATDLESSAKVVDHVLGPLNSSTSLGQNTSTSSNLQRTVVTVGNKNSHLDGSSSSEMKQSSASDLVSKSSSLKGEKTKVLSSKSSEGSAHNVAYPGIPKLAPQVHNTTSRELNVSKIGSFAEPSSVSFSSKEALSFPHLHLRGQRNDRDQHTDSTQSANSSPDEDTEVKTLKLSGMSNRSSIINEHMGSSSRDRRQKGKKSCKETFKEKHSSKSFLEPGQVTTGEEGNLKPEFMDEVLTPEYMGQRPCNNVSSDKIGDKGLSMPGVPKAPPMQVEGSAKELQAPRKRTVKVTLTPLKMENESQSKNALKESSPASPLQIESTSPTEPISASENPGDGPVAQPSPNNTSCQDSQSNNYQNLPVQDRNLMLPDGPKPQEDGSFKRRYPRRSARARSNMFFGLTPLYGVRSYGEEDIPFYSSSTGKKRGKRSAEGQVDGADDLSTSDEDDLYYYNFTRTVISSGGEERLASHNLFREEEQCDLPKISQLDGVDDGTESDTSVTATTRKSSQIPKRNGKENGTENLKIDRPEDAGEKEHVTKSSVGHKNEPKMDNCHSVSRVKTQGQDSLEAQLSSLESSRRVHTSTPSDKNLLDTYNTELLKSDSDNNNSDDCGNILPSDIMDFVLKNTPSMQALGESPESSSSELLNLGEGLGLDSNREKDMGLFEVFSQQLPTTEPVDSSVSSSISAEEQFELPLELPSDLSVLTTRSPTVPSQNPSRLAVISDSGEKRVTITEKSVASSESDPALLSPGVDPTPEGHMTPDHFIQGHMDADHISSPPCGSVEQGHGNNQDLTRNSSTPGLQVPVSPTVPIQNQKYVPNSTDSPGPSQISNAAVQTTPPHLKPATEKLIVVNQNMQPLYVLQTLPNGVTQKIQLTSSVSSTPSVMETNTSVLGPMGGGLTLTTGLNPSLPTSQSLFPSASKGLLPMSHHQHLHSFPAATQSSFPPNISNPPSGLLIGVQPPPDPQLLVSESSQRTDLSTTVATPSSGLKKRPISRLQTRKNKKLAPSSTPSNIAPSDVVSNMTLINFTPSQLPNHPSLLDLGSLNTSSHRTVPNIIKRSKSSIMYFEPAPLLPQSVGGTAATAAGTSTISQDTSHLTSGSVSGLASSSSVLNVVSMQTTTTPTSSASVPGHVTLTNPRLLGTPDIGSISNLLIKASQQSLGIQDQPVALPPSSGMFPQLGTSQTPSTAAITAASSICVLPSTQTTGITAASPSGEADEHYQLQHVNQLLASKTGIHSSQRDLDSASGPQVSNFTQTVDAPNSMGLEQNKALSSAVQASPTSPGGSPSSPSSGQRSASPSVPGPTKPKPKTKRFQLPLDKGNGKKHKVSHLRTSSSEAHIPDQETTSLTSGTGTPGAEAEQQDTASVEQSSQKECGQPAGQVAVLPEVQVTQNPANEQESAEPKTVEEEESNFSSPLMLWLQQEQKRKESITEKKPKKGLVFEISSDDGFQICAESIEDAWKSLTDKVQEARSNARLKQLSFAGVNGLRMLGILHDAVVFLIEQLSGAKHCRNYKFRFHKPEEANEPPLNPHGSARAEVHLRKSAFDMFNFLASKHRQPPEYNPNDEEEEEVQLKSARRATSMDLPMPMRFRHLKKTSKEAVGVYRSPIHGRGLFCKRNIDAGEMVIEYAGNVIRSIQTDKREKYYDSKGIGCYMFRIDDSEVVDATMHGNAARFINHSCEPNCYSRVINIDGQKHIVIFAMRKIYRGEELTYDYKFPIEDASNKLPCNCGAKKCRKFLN
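Steps: dispense CXXC domain solution (7 uM) → pin compounds or unlabeled HOX-A9 DNA control → 5 min ambient → add FLSN-HOX-A9 solution (50 nM) → spin → 30 min ambient → fluorescence polarization. Tris pH 7.5/NaCl/DTT/BSA buffer.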
KCNH2 WT inh: qHTS for Inhibitors of KCHN2 3.1: Wildtype qHTS | Voltage-gated inwardly rectifying potassium channel KCNH2 (Homo sapiens), Q12809 | U2OS, BacMam KCNH2, thallium flux FluxOr; active compounds read low | activity change, % at 1.84 µM | 340,000 compounds, 0.37% hits;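 active means maximum activity change below -70%; inconclusive means maximum activity change between -70% and -50%; inactive means maximum activity change above -50%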; further: on the % scale 0 is the no-effect control and ±100 the full control effect
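U2OS cells transduced with wild-type KCNH2 virus are loaded with FluxOr dye for 45 min, and thallium flux is measured in kinetic reads before and after stimulation buffer. Rate constants are normalized to DMSO controls.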
B2AR arrestin: qHTS assay of beta-arrestin-biased ligands of beta2-adrenergic receptor; Beta-2 adrenergic receptor (Homo sapiens), P07550; beta-arrestin recruitment to beta2AR, cell-based reporter; Potency, µM (highest dose often 46.1 µM), without a hit: top-dose activation, most hits filed as activators; 330,000 compounds, 0.02% hits;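 further: potency means the concentration at half of the fitted maximal effect; 0% = DMSO controls and full agonism = EC100 isoproterenol or metaproterenol; nearly all actives have a fitted effect of over 65% in size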
Giardia kill: Small Molecules that selectively kill Giardia lamblia: qHTS; Giardia lamblia trophozoite viability; activity change, % at 7.66 µM, hits read low; 340,000 compounds, 0.15% hits; in the data active means activity change below about -80%; inconclusive means between about -30% and that limit;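 further: parasites exposed to compound for two days anaerobically before the ATP read; on the % scale 0 is the no-effect control and ±100 the full control effect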
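Anaerobic 48 hrs incubation at 37 deg C of 100 trophozoites/well with test compounds; ATPLite 1-Step luminescence, 15-30 min RT, reports cellular ATP as viability.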
An asterisk follows results filed as active; i = inactive; u = inconclusive; x = not tested or not shown; [ ] = remark or other dose. Unless noted, the call rests on the fitted dose curve; in most records, active means well fitted curve in the direction sought with a large enough effect; inconclusive means small, poorly fitted or top-dose-only effect, or another doubt; inactive means no such curve, though single readings can be large; an effect the other way counts as inactive or inconclusive.

1: Cn1c(=O)c2cc(S(=O)(=O)Nc3ccc4c(c3)OCO4)ccc2n(C)c1=O
2: Cc1ccccc1C(=O)/C=C1/c2ccccc2CC(C)(C)N1C
3: O=C(NC1CCCCC1)C(=S)N1CCCC1
4: COc1ccc(/C=C/C(=O)O)cc1S(=O)(=O)Nc1ccc2c(c1)OCO2
5: CCCC(c1nnnn1CCc1ccccc1)N1CCN(C(=O)c2ccco2)CC1 (stereo not given)
6: O=C1c2ccccc2C(=O)N1CCc1csc(-c2ccc(F)cc2)n1
7: CNC(=S)N1CCN(c2cccc(OC)c2)CC1
8: CC(C)(C)OC(=O)C(Cc1ccc(OC(C)(C)C)cc1)NC(=O)CNC(=O)CNC(=O)OCc1ccccc1 (stereo not given)
assay / entry,1,2,3,4,5,6,7,8
Menin-MLL TR inh,13%,u,0%,x,0%,3%,33%[activator],-8%
GALK inh,0%,-2%,-5%,3%,5%,0%,0%,-3%
TRPV1 agonist,-15,13,-1,1,2,u,9,6
USP2a block,1%,-1%,-15%,-1%,1%,0%,3%,1%
KCNH2 3.1 block,9,10,15,4,-14,-2,4,-4
FBPA coupling cs,3,-2,2,11,3,-1,3,-1
MLL CXXC-DNA inh,13%,5%,-23%,-2%,10%,1%,5%,12%
KCNH2 WT inh,-2,19,-1,4,-15,20,21,20
B2AR arrestin,-0.4%,-0.2%,-0.4%,-0.6%,15%,-0.1%,-0.1%,-0.2%
Giardia kill,2,8,-2,20,4,20,-6,-14

A few values from the entries so far.
Reading of `Cc1ccccc1C(=O)/C=C1/c2ccccc2CC(C)(C)N1C` under KCNH2 WT inh: 19
Reading of `CC(C)(C)OC(=O)C(Cc1ccc(OC(C)(C)C)cc1)NC(=O)CNC(=O)CNC(=O)OCc1ccccc1` (stereo not given) under Menin-MLL TR inh: -8%
Reading of `CCCC(c1nnnn1CCc1ccccc1)N1CCN(C(=O)c2ccco2)CC1` (stereo not given) under MLL CXXC-DNA inh: 10%

(list continues)
9: Cc1[nH]n(-c2ccccc2)c(=O)c1-c1ccccc1
10: CCOC(=O)N1CCN(c2ccc(C(C)=O)cc2F)CC1
11: COc1ccc([C@]23Cc4ccccc4C(O2)C2=C(CC4(CCCCC4)OC2=O)O3)cc1
12: CN1/C(=C\C(=O)c2cccnc2)C(C)(C)c2ccccc21
13: CC1CN(c2nnc(NC(=O)c3ccccc3)s2)CC(C)O1 (stereo not given)
14: Cc1cc2ccccn2c1C(=O)c1nc(N2CCOCC2)ncc1Cl
15: Cc1c(Cl)c([N+](=O)[O-])nn1CCCC(=O)N1CCN(c2ccccc2)CC1
16: O=C(Nc1ccc(N2CCOCC2)cc1)c1ccc(S(=O)(=O)NCc2ccco2)cc1
assay / entry,9,10,11,12,13,14,15,16
Menin-MLL TR inh,21%,-6%,-21%[11.7 µM],3%,-17%,-17%,2%,x
GALK inh,13%,1%,x,0%,10%,-4%,1%,1%
TRPV1 agonist,1,3,i,15,0,5,-1,0
USP2a block,-2%,-1%,2%[7.66 µM],3%,0%,1%,-1%,3%
KCNH2 3.1 block,2,6,x,8,-2,1,12,1
FBPA coupling cs,4,1,2,0,1,x,2,4
MLL CXXC-DNA inh,11%,11%,-6%[23 µM],0%,-3%,8%,1%,-2%
KCNH2 WT inh,3,-6,x,-8,x,-10,1,-2
B2AR arrestin,0.4%,-0.3%,0.2%[9.22 µM],-0.1%,-0.2%,-0.1%,-0.3%,0.0%
Giardia kill,2,-3,x,2,-30,-13,1,-18

17: COc1c(C)cc(C(=O)C2CCCN(C(=O)/C=C/c3ccccn3)C2)cc1C (stereo not given)
18: COC(=O)c1onc(C(=O)c2ccccc2)c1C(=O)OC
19: Cc1nn(CC#N)c(=O)n1N(C)c1ncc(C(F)(F)F)cc1Cl
20: COC(=O)[C@@H]1CC[C@H](C)[C@@H](c2ccc(C)cc2)N1C(=O)c1ccc(/C=N\OC[C@@H](O)[C@H]2O[C@H]3OC(C)(C)O[C@H]3[C@@H]2O)cc1
21: O=C(Nc1ccc(-c2ccccc2)cc1)c1ccco1
22: COc1cccc(/C=N/c2sc(Cc3ccccc3)c(C)c2C(N)=O)c1O
23: Cn1c(N/N=C\c2cccc(O)c2)cc(=O)n(C)c1=O
24: CS(=O)(=O)N(CC(=O)Nc1ccc(F)cc1F)c1cccc([N+](=O)[O-])c1
assay / entry,17,18,19,20,21,22,23,24
Menin-MLL TR inh,-19%,0%,2%,-22%[11.7 µM],1%,1%,-6%,2%
GALK inh,-2%,-1%,7%,x,0%,-1%,-1%,-3%
TRPV1 agonist,15,2,2,x,-3,0,-1,-4
USP2a block,0%,1%,1%,x,2%,3%,-2%,1%
KCNH2 3.1 block,16,3,1,x,11,9,7,-7
FBPA coupling cs,-3,3,-1,2,-2,2,-25,0
MLL CXXC-DNA inh,-8%,-1%,5%,x,-3%,-1%,12%,-10%
KCNH2 WT inh,-3,3,20,x,-19,-2,5,-3
B2AR arrestin,0.2%,0.4%,0.0%,x,0.0%,0.6%,-0.8%,0.3%
Giardia kill,-7,-13,15,x,-19,-12,7,9

25: Cc1cc(NC(=O)COC(=O)C2COc3ccccc3O2)no1 (stereo not given)
26: Nc1nc2ccccc2n1/N=C/c1ccc2c(c1)OCO2
27: CCOC(=O)CSc1nnc(NC(=O)c2cccc([N+](=O)[O-])c2)s1
28: Cc1ccc(C(=O)NCc2ccncc2)cc1S(=O)(=O)Nc1cccc(C)c1C
29: COc1cccc(NC(=O)CSc2nnnn2C2CCCCC2)c1
30: CCc1nnc(NC(=O)c2ccc(S(=O)(=O)N3CCOCC3)cc2)s1
31: CCOC(=O)c1sc(=S)n2c1[nH]c(=O)c1ccc(C(=O)OC)cc12
32: CCCCNC(=S)N/N=C/C1=CCC2CC1C2(C)C (stereo not given)
assay / entry,25,26,27,28,29,30,31,32
Menin-MLL TR inh,0%,x,14%,x,9%,-1%,u,-3%
GALK inh,2%,4%,-3%,-1%,14%,3%,-1%,-2%
TRPV1 agonist,-1,22,2,5,14,1,-1,u
USP2a block,0%,3%,-1%,3%,1%,-2%,-2%,0%
KCNH2 3.1 block,-1,2,10,-11,-17,-1,-1,-3
FBPA coupling cs,-6,-6,-25,x,5,1,0,-3
MLL CXXC-DNA inh,-7%,4%,0%,22%,13%,11%,-13%,-1%
KCNH2 WT inh,-3,-7,-3,31,-5,-13,-7,23
B2AR arrestin,-0.9%,0.1%,-0.5%,-1.0%,-0.1%,-1.0%,-0.7%,-0.4%
Giardia kill,1,-3,-22,30[activator],-13,-17,20,2

33: O=C(c1ccccc1CCc1ccccc1)N1CCOCC1
34: COC(=O)N/N=C(\C)c1ccccc1OC(F)F
35: CC(C)C(=O)NC(Nc1ccc(S(N)(=O)=O)cc1)C(Cl)(Cl)Cl (stereo not given)
36: CCN1CCN(c2cc(C)c3cc(NC(=O)c4cc(OC)cc(OC)c4)ccc3n2)CC1
37: CSc1nc2c(c(=O)[nH]1)C(c1cccs1)C1=C(CCCC1=O)N2 (stereo not given)
38: NC(=S)N/N=C/c1ccc(C(F)(F)F)cc1
assay / entry,33,34,35,36,37,38
Menin-MLL TR inh,-23%,9%,5%,x,-1%,2%
GALK inh,4%,x,0%,x,-1%,1%
TRPV1 agonist,10,2,-1,-2,2,10
USP2a block,2%,0%,5%,0%,1%,-1%
KCNH2 3.1 block,-4,-7,-6,1,10,0
FBPA coupling cs,0,-1,4,1,1,0
MLL CXXC-DNA inh,-1%,1%,-9%,24%,18%,1%
KCNH2 WT inh,-3,-1,-7,15,4,-1
B2AR arrestin,-0.1%,2.7%,-0.5%,5.4%,-0.8%,-0.1%
Giardia kill,11,12,-4,13,18,-1

Only part of the results is shown, so the mix of outcomes need not match the whole.
